Ran importin: inhibitors of Ran–importin-beta complex formation, primary screen, biochemical, CFP-Ran/YFP-importin-beta FRET, RCC1, cell-free (AID 434961); 0.2% of 7,700 active; inhibition, %; CFP-Ran/YFP-importin-beta FRET, cell-free; stronger effect = higher value;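 active = more than half of the replicate wells above 15% inhibition; inconclusive = exactly half above it; inactive = fewer than half above it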;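 also: 0% = DMSO wells and 100% inhibition = RanGDP control wells on each plate; stock of unstated strength diluted about 400-fold; mean of two wells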
An asterisk follows results filed as active; ? = inconclusive.

SMILES	Ran importin
C[C@@H]1CCCCO[C@H](CN(C)C(=O)CCC(F)(F)F)[C@@H](C)CN([C@H](C)CO)C(=O)c2cc(NC(=O)c3ccncc3)ccc2O1	5.8
C[C@H]1CN([C@@H](C)CO)C(=O)Cc2cc(NS(=O)(=O)c3cccs3)ccc2O[C@H]1CN(C)S(=O)(=O)c1ccc(Cl)cc1	2.0
CNC[C@@H]1Oc2ccc(NC(=O)NC3CCCCC3)cc2C(=O)N([C@H](C)CO)C[C@@H]1C	-1.7
C[C@H](CO)N1C[C@H](C)[C@@H](CN(C)Cc2ccncc2)Oc2c(NC(=O)c3nc4ccccc4s3)cccc2C1=O	-2.9
C[C@H](CO)N1C[C@H](C)[C@@H](CN(C)CC2CCCCC2)Oc2ccc(N(C)C)cc2CC1=O	-4.0
C[C@@H]1CN([C@H](C)CO)C(=O)c2cccc(NC(=O)c3ccncc3)c2O[C@H]1CN(C)Cc1ccc(Oc2ccccc2)cc1	-1.6
C[C@H](CO)N1C[C@H](C)[C@H](CN(C)Cc2ccc(-c3ccccc3)cc2)Oc2c(NS(=O)(=O)c3cccs3)cccc2C1=O	1.0
Cc1noc(C)c1NC(=O)N(C)C[C@H]1OCCCC[C@@H](C)Oc2ccc(NS(C)(=O)=O)cc2C(=O)N([C@H](C)CO)C[C@@H]1C	4.4
CCCC(O)C#Cc1cnc2c(c1)C(=O)N([C@H](C)CO)C[C@H](C)[C@H](CN(C)S(=O)(=O)c1ccc(F)cc1)O2 (some centres not stated)	-0.6
COc1ccc(CN(C)C[C@@H]2Oc3c(NC(=O)Nc4ccc(OC)cc4)cccc3C(=O)N([C@@H](C)CO)C[C@H]2C)cc1	-0.1
C[C@H]1CN([C@@H](C)CO)C(=O)CCCn2cc(nn2)CO[C@@H]1CN(C)Cc1ccc2c(c1)OCCN2C	3.3
C[C@@H]1CN([C@H](C)CO)C(=O)c2cc(NC(=O)Nc3ccccc3)ccc2O[C@H]1CN(C)C(=O)Nc1ccccc1	?
C[C@H](CO)N1C[C@H](C)[C@@H](CN(C)C)OCCCC[C@H](C)Oc2ccc(NC(=O)Nc3ccc(F)cc3)cc2C1=O	1.0
C[C@H]1CN([C@@H](C)CO)C(=O)c2cc(NC(=O)Nc3ccccc3)ccc2O[C@@H]1CN(C)C(=O)Nc1ccc(C(F)(F)F)cc1	0.3
C[C@@H]1CN([C@H](C)CO)C(=O)c2cc(NC(=O)Nc3ccc4c(c3)OCO4)ccc2O[C@@H](C)CCCCO[C@H]1CN(C)Cc1ccccc1	?
C[C@@H]1CN([C@@H](C)CO)C(=O)c2cc(NC(=O)Nc3ccc(F)cc3)ccc2O[C@H]1CN(C)S(=O)(=O)c1cccs1	0.4
C[C@H](CO)N1C[C@H](C)[C@@H](CN(C)Cc2ccc3c(c2)OCO3)Oc2c(NC(=O)Nc3cccc4ccccc34)cccc2C1=O	-2.8
C[C@@H]1CN([C@H](C)CO)C(=O)c2cc(NC(=O)Nc3ccc4c(c3)OCO4)ccc2O[C@@H]1CN(C)S(=O)(=O)c1cn(C)cn1	5.3
Cc1noc(C)c1NC(=O)N(C)C[C@@H]1Oc2ccc(NC(=O)NC3CCCCC3)cc2C(=O)N([C@@H](C)CO)C[C@H]1C	-1.2
COc1ccc(NC(=O)Nc2cccc3c2O[C@@H](CN(C)S(=O)(=O)c2ccc(Cl)cc2)[C@@H](C)CN([C@H](C)CO)C3=O)cc1	4.7
Cc1noc(C)c1NC(=O)N(C)C[C@H]1Oc2ccc(NC(=O)C3CC3)cc2CC(=O)N([C@@H](C)CO)C[C@H]1C	-3.3
C[C@H]1CCCCO[C@@H](CN(C)C(=O)CCC(F)(F)F)[C@@H](C)CN([C@@H](C)CO)C(=O)c2cc(NS(=O)(=O)c3cn(C)cn3)ccc2O1	-1.1
CCCN(C)C[C@H]1OCCCC[C@H](C)Oc2ccc(NS(=O)(=O)c3ccc(OC)cc3)cc2C(=O)N([C@@H](C)CO)C[C@H]1C	4.4
CNC[C@H]1Oc2c(NC(=O)Nc3c(C)noc3C)cccc2C(=O)N([C@@H](C)CO)C[C@H]1C	1.3
Cc1noc(C)c1S(=O)(=O)N(C)C[C@@H]1OCCCC[C@H](C)Oc2ccc(N(C)C)cc2C(=O)N([C@@H](C)CO)C[C@H]1C	1.0
Cc1noc(C)c1NC(=O)N(C)C[C@@H]1Oc2ccc(NC(=O)C3CC3)cc2CC(=O)N([C@@H](C)CO)C[C@@H]1C	-5.3
C[C@H](CO)N1C[C@H](C)[C@H](CN(C)C(=O)Nc2ccc(C(F)(F)F)cc2)OCCCC[C@H](C)Oc2ccc(NS(C)(=O)=O)cc2C1=O	2.4
C[C@@H]1CN([C@H](C)CO)C(=O)c2cc(NS(C)(=O)=O)ccc2O[C@@H]1CN(C)C(=O)NC1CCCCC1	-0.7
C[C@H]1CN([C@@H](C)CO)C(=O)c2cc(NC(=O)Nc3ccc(F)cc3)ccc2O[C@H]1CN(C)C(=O)Nc1ccc(F)cc1	9.5
CNC[C@H]1Oc2ccc(NC(=O)NC3CCCCC3)cc2C(=O)N([C@@H](C)CO)C[C@@H]1C	-1.7
C[C@H](CO)N1C[C@H](C)[C@H](CN(C)Cc2ccncc2)Oc2ccc(NC(=O)C3CC3)cc2C1=O	-2.6
C[C@@H]1CN([C@@H](C)CO)C(=O)Cc2cc(NC(=O)Nc3ccc4c(c3)OCO4)ccc2O[C@@H]1CN(C)C(=O)NC1CCCCC1	-2.4
Cc1noc(C)c1S(=O)(=O)N(C)C[C@H]1Oc2c(NC(=O)c3ccc(-c4nccs4)cc3)cccc2C(=O)N([C@H](C)CO)C[C@H]1C	-3.5
CNC[C@@H]1Oc2c(NC(=O)Nc3ccc(C(F)(F)F)cc3)cccc2C(=O)N([C@H](C)CO)C[C@@H]1C	0.6
Cc1noc(C)c1NC(=O)N(C)C[C@H]1Oc2ccc(NC(=O)Nc3cccc4ccccc34)cc2C(=O)N([C@H](C)CO)C[C@H]1C	-0.5
C[C@@H]1CN([C@H](C)CO)C(=O)c2cc(NC(=O)Nc3ccc4c(c3)OCO4)ccc2O[C@@H]1CN(C)C	0.0

Of the compounds above, 9 have fluorine.
SMILES	Ran importin
C[C@@H]1CCCCO[C@H](CN(C)C(=O)CCC(F)(F)F)[C@@H](C)CN([C@H](C)CO)C(=O)c2cc(NC(=O)c3ccncc3)ccc2O1	5.8
CCCC(O)C#Cc1cnc2c(c1)C(=O)N([C@H](C)CO)C[C@H](C)[C@H](CN(C)S(=O)(=O)c1ccc(F)cc1)O2 (some centres not stated)	-0.6
C[C@H](CO)N1C[C@H](C)[C@@H](CN(C)C)OCCCC[C@H](C)Oc2ccc(NC(=O)Nc3ccc(F)cc3)cc2C1=O	1.0
C[C@H]1CN([C@@H](C)CO)C(=O)c2cc(NC(=O)Nc3ccccc3)ccc2O[C@@H]1CN(C)C(=O)Nc1ccc(C(F)(F)F)cc1	0.3
C[C@@H]1CN([C@@H](C)CO)C(=O)c2cc(NC(=O)Nc3ccc(F)cc3)ccc2O[C@H]1CN(C)S(=O)(=O)c1cccs1	0.4
C[C@H]1CCCCO[C@@H](CN(C)C(=O)CCC(F)(F)F)[C@@H](C)CN([C@@H](C)CO)C(=O)c2cc(NS(=O)(=O)c3cn(C)cn3)ccc2O1	-1.1
C[C@H](CO)N1C[C@H](C)[C@H](CN(C)C(=O)Nc2ccc(C(F)(F)F)cc2)OCCCC[C@H](C)Oc2ccc(NS(C)(=O)=O)cc2C1=O	2.4
C[C@H]1CN([C@@H](C)CO)C(=O)c2cc(NC(=O)Nc3ccc(F)cc3)ccc2O[C@H]1CN(C)C(=O)Nc1ccc(F)cc1	9.5
CNC[C@@H]1Oc2c(NC(=O)Nc3ccc(C(F)(F)F)cc3)cccc2C(=O)N([C@H](C)CO)C[C@@H]1C	0.6

Further records.
SMILES	Ran importin
COc1ccc(CN(C)C[C@@H]2Oc3c(NC(=O)Nc4c(C)noc4C)cccc3C(=O)N([C@@H](C)CO)C[C@@H]2C)cc1	1.6
C[C@@H]1CN([C@H](C)CO)C(=O)c2cccc(NC(=O)Nc3ccc(C(F)(F)F)cc3)c2O[C@@H]1CN(C)C	-6.1
Cc1cc(C(=O)Nc2cccc3c2O[C@@H](CN(C)CC2CC2)[C@H](C)CN([C@H](C)CO)C3=O)n(C)n1	-7.8
C[C@@H]1CN([C@@H](C)CO)C(=O)Cc2cc(NC(=O)CCN3CCOCC3)ccc2O[C@H]1CN(C)C(=O)Nc1cccc2ccccc12	-1.6
CC(C)NC(=O)N(C)C[C@H]1OCCCC[C@H](C)Oc2ccc(NC(=O)CCC(F)(F)F)cc2C(=O)N([C@H](C)CO)C[C@@H]1C	-0.8
C[C@H]1CN([C@@H](C)CO)C(=O)c2cccc(NS(=O)(=O)c3ccccc3)c2O[C@@H]1CN(C)C(=O)Nc1ccc2c(c1)OCO2	-3.5
C[C@H]1CN([C@@H](C)CO)C(=O)c2cccc(NC(=O)C3CCOCC3)c2O[C@@H]1CN(C)Cc1ccc2c(c1)OCO2	-1.9
COc1ccc(CN(C)C[C@@H]2Oc3ccc(NC(=O)Nc4ccc(OC)cc4)cc3C(=O)N([C@H](C)CO)C[C@@H]2C)cc1	4.3
C[C@H](CO)N1C[C@H](C)[C@H](CN(C)S(=O)(=O)c2ccccc2)Oc2ccc(N(C)C)cc2C1=O	5.6
Cc1noc(C)c1NC(=O)Nc1cccc2c1O[C@H](CN(C)Cc1ccc(C(=O)O)cc1)[C@@H](C)CN([C@@H](C)CO)C2=O	-2.2
C[C@H](CO)N1C[C@H](C)[C@@H](CN(C)Cc2ccc(C(F)(F)F)cc2)Oc2ccc(NC(=O)CCN3CCOCC3)cc2C1=O	2.8
CC(C)NC(=O)Nc1cccc2c1O[C@@H](CN(C)Cc1ccc(C(F)(F)F)cc1)[C@H](C)CN([C@@H](C)CO)C2=O	-1.6
Cc1noc(C)c1NC(=O)N(C)C[C@@H]1Oc2ccc(NC(=O)Cn3cnnn3)cc2CC(=O)N([C@H](C)CO)C[C@@H]1C	-2.6
C[C@@H]1CN([C@@H](C)CO)C(=O)c2cc(NC(=O)CCC(F)(F)F)ccc2O[C@@H](C)CCCCO[C@H]1CN(C)C(=O)CCC(F)(F)F	-4.1
C[C@@H]1CN([C@H](C)CO)C(=O)c2cccc(NS(=O)(=O)c3ccc(Cl)cc3)c2O[C@@H]1CN(C)C(=O)Nc1ccc(F)cc1	5.6
Cc1noc(C)c1S(=O)(=O)Nc1ccc2c(c1)C(=O)N([C@H](C)CO)C[C@@H](C)[C@H](CN(C)C)OCCCC[C@@H](C)O2	3.2
COc1ccc(S(=O)(=O)N(C)C[C@@H]2Oc3ccc(NC(=O)Nc4ccc5c(c4)OCO5)cc3C(=O)N([C@H](C)CO)C[C@@H]2C)cc1	-0.6
C[C@@H]1CCCCO[C@H](CN(C)Cc2ccncc2)[C@@H](C)CN([C@@H](C)CO)C(=O)c2cc(NC(=O)Nc3ccccc3)ccc2O1	-1.2
Cc1noc(C)c1S(=O)(=O)N(C)C[C@H]1Oc2ccc(NC(=O)C3CCCCC3)cc2CC(=O)N([C@@H](C)CO)C[C@@H]1C	4.2
CC(C)NC(=O)N(C)C[C@H]1Oc2ccc(NC(=O)C3CC3)cc2CC(=O)N([C@@H](C)CO)C[C@@H]1C	0.8
COc1ccc(S(=O)(=O)Nc2ccc3c(c2)CC(=O)N([C@H](C)CO)C[C@@H](C)[C@@H](CN(C)Cc2ccc(C(=O)O)cc2)O3)cc1	-3.3
Cc1noc(C)c1S(=O)(=O)Nc1ccc2c(c1)C(=O)N([C@@H](C)CO)C[C@@H](C)[C@@H](CN(C)C(=O)Nc1ccccc1)OCCCC[C@@H](C)O2	2.2
CC(C)NC(=O)Nc1ccc2c(c1)C(=O)N([C@H](C)CO)C[C@H](C)[C@@H](CN(C)C(=O)CCCN(C)C)OCCCC[C@@H](C)O2	-4.3
Cc1noc(C)c1NC(=O)N(C)C[C@H]1Oc2ccc(NC(=O)C3CC3)cc2CC(=O)N([C@H](C)CO)C[C@@H]1C	4.9
C[C@@H]1CCCCO[C@@H](CN(C)Cc2ccccc2)[C@@H](C)CN([C@@H](C)CO)C(=O)c2cc(NS(C)(=O)=O)ccc2O1	-1.0
C[C@H](CO)N1C[C@H](C)[C@H](CN(C)CC2CC2)Oc2ccc(NC(=O)c3ccncc3)cc2C1=O	-1.3
C[C@H](CO)N1C[C@H](C)[C@@H](CN(C)S(=O)(=O)c2cccs2)Oc2ccc(NC(=O)CCCN(C)C)cc2C1=O	3.9
C[C@@H]1CCCCO[C@H](CN(C)Cc2ccc(C(=O)O)cc2)[C@@H](C)CN([C@H](C)CO)C(=O)c2cc(NC(=O)c3ccncc3)ccc2O1	-3.4
C[C@H](CO)N1C[C@H](C)[C@H](CN(C)S(=O)(=O)c2ccccc2)Oc2ccc(NC(=O)CCN3CCOCC3)cc2CC1=O	6.3
COc1ccc(S(=O)(=O)N(C)C[C@@H]2Oc3ccc(NC(=O)c4ccncc4)cc3C(=O)N([C@@H](C)CO)C[C@@H]2C)cc1	11
C[C@@H]1CN([C@H](C)CO)C(=O)Cc2cc(NC(=O)CCC(F)(F)F)ccc2O[C@@H]1CN(C)C	-2.1
C[C@H](CO)N1C[C@H](C)[C@H](CN(C)Cc2ccc(-c3ccccc3)cc2)Oc2ccc(NS(=O)(=O)c3cccs3)cc2C1=O	3.2
COc1ccc(CN(C)C[C@H]2Oc3c(NC(=O)Nc4ccc(OC)cc4)cccc3C(=O)N([C@H](C)CO)C[C@@H]2C)cc1	-0.5
Cc1noc(C)c1NC(=O)Nc1cccc2c1O[C@@H](CN(C)Cc1ccc(C(F)(F)F)cc1)[C@@H](C)CN([C@H](C)CO)C2=O	?
C[C@@H]1CN([C@@H](C)CO)C(=O)c2cc(NS(=O)(=O)c3cccs3)ccc2O[C@@H](C)CCCCO[C@@H]1CN(C)C	-3.7
C[C@H]1CN([C@@H](C)CO)C(=O)c2cccc(NC(=O)C3CCOCC3)c2O[C@H]1CN(C)C(=O)Nc1ccc2c(c1)OCO2	-4.2
C[C@H](CO)N1C[C@H](C)[C@H](CN(C)C)OCCCC[C@H](C)Oc2ccc(NC(=O)Nc3ccccc3)cc2C1=O	1.4
C[C@@H]1CN([C@H](C)CO)C(=O)Cc2cc(N(C)C)ccc2O[C@@H]1CN(C)C(=O)Nc1cccc2ccccc12	?

An excerpt. The share of hits here may be higher or lower than overall.
